HCMV NEC inh = disrupts HCMV UL50-UL53 complex binding. inhibition, % (test concentration not listed). HTRF UL50-UL53 interaction, normalized percent inhibition. AID 1918969. actives 0.15% (n = 190,000);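 active = both replicates at 50% or more, plus weaker picks with an unusually low signal ratio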;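 note: stock transfer was 100 nL into about 20 µL; 0% = negative control wells and 100% = wells with untagged competitor protein; inactives centre near -12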
Sa growth 42C = S. aureus growth inhibition; actives 0.53% (n = 170,000); S. aureus RN4220 growth, OD600, 20 h, 42 °C; hits give low values; relative growth, % (concentration not given with the values);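 active = growth at 42 °C up to 50% and 20 or more points under that at 30 °C, or under 10% at both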;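 note: 300 nL library stock went into each well; scaled to the means of positive and negative controls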
GIV Gai3 FP = GIV-Galpha-i interaction inhibition | P08753 | Galpha-i3/FITC-GIV peptide fluorescence polarization, 90 min; hits give low values; scaled: aluminum fluoride 0%, vehicle 100% | percent of control (FP), % (test concentration not listed) | actives 0.42% (n = 210,000) | AID 1224905;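 active = replicate mean at 85% of control or lower, very high polarization wells dropped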;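 note: wells of about 15 µL received 100 nL stock; the first replicate is given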
Target sequence (P08753 whole entry, looked up): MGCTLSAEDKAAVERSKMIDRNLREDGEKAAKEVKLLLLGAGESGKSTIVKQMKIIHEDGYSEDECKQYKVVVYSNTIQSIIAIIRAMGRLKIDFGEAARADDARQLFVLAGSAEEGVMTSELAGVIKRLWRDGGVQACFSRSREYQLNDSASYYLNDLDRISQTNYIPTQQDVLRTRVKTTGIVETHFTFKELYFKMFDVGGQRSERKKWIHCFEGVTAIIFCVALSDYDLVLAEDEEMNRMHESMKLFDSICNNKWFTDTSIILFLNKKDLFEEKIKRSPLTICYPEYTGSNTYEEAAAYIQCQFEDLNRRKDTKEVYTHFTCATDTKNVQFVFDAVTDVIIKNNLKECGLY
Sa growth 42C second temp = also measured in Sa growth 42C; calls as there; relative growth, %; measured here: growth at 30 °C;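 optical density after 20 h as mean of two plates; 100% = untreated growth and lower means inhibition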
* marks the source's active call; other numbers are inactive results; . = not tested or not shown; & = joins results of further samples. An unsorted share of the library; overall some 0.85% were active at least once.

SMILES | HCMV NEC inh | Sa growth 42C | Sa growth 42C second temp | GIV Gai3 FP
COc1ccc(S(=O)(=O)N2CCC(NC(=O)NCCN3CCCCC3)CC2)cc1 | -12&10 | 88 | 86 | 101&103
O=C(CSc1ccccn1)Nc1cc(Cl)cc(Cl)c1 | 16 | 83 | 103 | .
Cc1cc2nnc(SCc3ccc(F)cc3)n2c2ccccc12 | -33 | 104 | 86 | 103
CC1(C)Cc2nc3sc4c(N5CCOCC5)ncnc4c3cc2CO1 | 9 | 86 | 118 | 100
COc1ccc(/C=C2\OC(=S)N(C)C2=O)cc1 | . | 107 | 79 | 103
CC(=O)NS(=O)(=O)c1ccc(NC(=O)C2CCCC2)cc1 | -26 | 87 | 84 | .
CC(C)(C)c1csc(NC(=O)/C=C/c2ccccc2)n1 | -12 | 109 | 96 | .
CCCn1c2ccccc2c2cnn(CC(=O)Nc3ccc(C)cc3Br)c(=O)c21 | . | 137 | 89 | 111
CCN(CC)C(=O)CSc1nc(C)cc(=O)[nH]1 | -13 | 105 | 104 | 105
CCOC(=O)c1ccc(Nc2c(C(=O)OCC)cnc3ccccc23)cc1 | . | 103 | 81 | 107
CCc1ccc(NC(=O)C2CCCN(S(=O)(=O)c3cccc4nonc34)C2)cc1 (stereo not drawn) | -14 | 99 | 103 | 103
CNC(=O)c1ccc(-c2sc3nc(N4CCOCC4)c4c(c3c2N)CCCC4)o1 | -65 | . | . | 110
COc1cccc(NC(=O)CSc2nc3c(sc4ncccc43)c(=O)n2Cc2ccc(C)cc2)c1 | 79* | . | . | 100
COc1ccc(S(=O)(=O)N2CCCCC2C)cc1 (stereo not drawn) | . | 109 | 82 | 103
O=C(O)Cc1nnn(C2CCCCC2)n1 | 12 | 83 | 83 | 108
CCN(CC)c1nn2c(=O)c(C(=O)NCc3cccc(OC)c3OC)cnc2s1 | . | 103 | 89 | 100
CCOCCc1nn2c(=O)cc(COC(=O)COc3ccc(C)c(C)c3)nc2s1 | . | 85 | 89 | 102
CCN(CCC#N)C(=O)c1c(-c2c(Cl)cccc2Cl)noc1C | -17 | 95 | 83 | 95
O=C(COc1ccccc1)Nc1ccccc1N1CCCCC1 | -6 | 112 | 101 | .
O=C(NCC(O)c1ccccc1)c1cccs1 (stereo not drawn) | -7 | 103 | 92 | 96
COc1ccc(C)c2sc(N(Cc3cccnc3)C(=O)COc3ccccc3)nc12 | . | 144 | 76 | 225
Cc1ccc(Cl)cc1NC(=O)C1CCCN(S(=O)(=O)c2cccc3cccnc23)C1 (stereo not drawn) | -33 | 108 | 82 | 103
O=C(c1cnc2ccccc2c1S(=O)(=O)c1ccc(Br)cc1)N1CCSCC1 | -9 | . | . | 100
CCOC(=O)CCc1c(C)nc2ncnn2c1C | -1 | 86 | 95 | 106
COc1ccc(C(=O)NCCS(=O)(=O)N2CCN(C(=O)c3ccco3)CC2)cc1 | -25 | 87 | 85 | 103
Cc1cc(OC(=O)/C=C/c2ccco2)ccc1Cl | -23 | 77 | 94 | .
CC1CCN(c2c(S(=O)(=O)c3ccccc3)cnc3ccccc23)CC1 | . | 102 | 86 | 102
CN(Cc1ccccc1)C(=O)c1cc2c(=O)n3ccccc3nc2n1C | -30 | 103 | 98 | 68*
CN1CCN(C2(CNC(=O)c3ccc([N+](=O)[O-])cc3)CCCCC2)CC1 | -64 | 94 | 90 | 107
O=C(CSc1nnc(CNC(=O)c2cccs2)o1)NC1CCCC1 | . | 91 | 94 | 101
CCn1c(=O)c(=O)[nH]c2c(=O)oc3ccccc3c21 | . | 91 | 93 | 103
COc1ccccc1N1CCN(c2ccc(=O)n(CC(=O)NC3CCCCC3)n2)CC1 | -40 | . | . | 105
COc1cccc(CNC(=O)C(C)n2sc3ccccc3c2=O)c1 (stereo not drawn) | -20 | 88 | 91 | 101
Cc1nn(-c2ccc3nncn3n2)c2c1C(c1ccc(OCc3ccccc3)cc1)CC(=O)N2 (stereo not drawn) | -21 | . | . | 98
CCc1c(C)nc2ncnn2c1Sc1ccc(NS(=O)(=O)c2ccc3c(c2)n(C)c(=O)n3C)cc1 | -20 | . | . | 100
O=C(Nc1cccc(C(F)(F)F)c1)c1ccc2snnc2c1 | -25 | 99 | 83 | 109
Cc1cc(C(=O)CSc2nnc(-c3ccco3)o2)c(C)n1-c1nccs1 | -32 | 63 | 85 | .
O=C(O)COCC(=O)Nc1cccc(C(=O)O)c1 | -31 | 110 | 82 | 98
COc1ccccc1CC(=O)NCc1csc(-c2cccs2)n1 | -29 | 105 | 72 | 103
Cn1c(=O)n(C)c2cc(Oc3ccccc3)c(NS(=O)(=O)c3ccc4c(c3)CCC4)cc21 | -23 | . | . | 105
Cc1noc2nc(-c3ccccc3)cc(C(F)(F)F)c12 | -16 | 108 | 86 | .
CC(C)(C)C(=O)Nc1nc(CC(=O)NCc2ccncc2)cs1 | 0 | . | . | 104
CCOc1ccc(S(=O)(=O)c2c(C(=O)c3ccc(CC)cc3)cnc3ccc(C)cc23)cc1 | -31 | 119 | 83 | 107
CC1CCN(S(=O)(=O)c2ccc(C(=O)Nc3ccc4c(c3)C(=O)NC4=O)cc2)CC1 | -17 | 104 | 89 | 95
COc1cc(-c2[nH]nc3c2C(c2cccc(Br)c2)C(C#N)=C(N)O3)cc(OC)c1OC (stereo not drawn) | -4 | . | . | 103
CC(C)CCNC(=O)CCCCn1c(=O)c2ccccc2n(CC(=O)Nc2cccc(Cl)c2)c1=O | -17 | . | . | 106
COc1ccc(OC)c(NC(=O)C(C)n2c(=O)c(-c3ccccc3NC(C)=O)nc3ccccc32)c1 (stereo not drawn) | 14 | 104 | 94 | 99
COc1cccc(-c2noc(N3CCC4(CC3)OCCO4)n2)c1 | 5 | 97 | 103 | 112
CCOc1ccc(C(=O)/C=C/C(=O)O)cc1 | -4 | 100 | 70 | 99
Cc1c(C)c(C)c(S(=O)(=O)N=C(N)N)c(C)c1C | 4 | 107 | 102 | 96

(listing goes on)
SMILES | HCMV NEC inh | Sa growth 42C | Sa growth 42C second temp | GIV Gai3 FP
COc1ccc(NCc2cccn2-c2nnc(N3CCN(c4ccccc4)CC3)s2)cc1 | -6 | . | . | 102
c1ccc(CNc2cccc3nonc23)cc1 | -35 | 66 | 83 | .
CC(=O)Nc1ccc(NC(=O)CSc2nccn2Cc2ccc3c(c2)OCO3)cc1 | . | 92 | 91 | 99
CCCc1ccc(S(=O)(=O)Nc2ccc3c(c2)CCC(=O)N3CC)cc1 | -24 | . | . | 100
Cc1nn(-c2cccc(Cl)c2)c2nc(-c3ccccn3)cc(C(F)(F)F)c12 | 1 | . | . | 105
CC(C)c1ccc(NC(=O)Nc2csc3c2CCCC3)cc1 | -4 | 103 | 87 | 99
CCCCn1c(SCC(=O)N2CCCCC2)nc2ccccc2c1=O | -12 | 116 | 83 | 95
COc1ccccc1CN1CCC(CNS(=O)(=O)c2ccc3c(c2)CCCC(=O)N3)CC1 | -28 | 106 | 87 | 105
Cc1ccc(Cl)cc1NC(=O)c1oc2ccc(S(=O)(=O)N3CCC4(CC3)OCCO4)cc2c1C | . | 92 | 83 | 99
COC(=O)c1ccccc1NC(=O)c1nc(S(=O)(=O)Cc2cccc(C)c2)ncc1Cl | -12 | 93 | 81 | 102
O=C1CC(c2ccccc2)C2=C(CC(c3cccs3)CC2=O)N1 (stereo not drawn) | -2 | 91 | 86 | 105
Cc1ccc(/C=N/NC(=O)c2ccc(CN3CCOCC3)cc2)cc1 | -23 | 90 | 91 | 102
CCOC(=O)CSC1=C(C#N)C(c2ccccc2Cl)C(C(=O)OC)C(=O)N1 (stereo not drawn) | -28 | 94 | 84 | 97
COc1ccc(Cl)cc1NC(=O)Cn1c(=O)n(CCC(=O)NCc2ccc3c(c2)OCO3)c(=O)c2ccccc21 | -16 | 91 | 93 | 105
O=C1c2[nH]nc(-c3ccccc3O)c2C(c2cccc(Cl)c2)N1Cc1cccnc1 (stereo not drawn) | -33 | 103 | 84 | 103
O=C(CCCN1C(=O)c2cccnc2Oc2ccc(Cl)cc21)NCc1ccc2c(c1)OCO2 | 7 | . | . | 102
CCN1CCN(c2ncnc3c2cnn3-c2cc(Cl)ccc2C)CC1 | . | 122 | 100 | 103
Cc1nn(CCC#N)c2[nH]c(=O)cc(C(F)(F)F)c12 | 10 | 116 | 102 | .
COC(=O)c1cc2c(nc1SCC(=O)CC#N)CCC2 | -34 | 117 | 91 | 112
O=C(NCc1ccco1)c1oc(=O)c2ccccc2c1-c1ccccc1 | . | 94 | 93 | 106

Given as tab-separated lines: entries from further up.
SMILES	HCMV NEC inh	Sa growth 42C	Sa growth 42C second temp	GIV Gai3 FP
CC(C)c1ccc(NC(=O)Nc2csc3c2CCCC3)cc1	-4	103	87	99
CCCCn1c(SCC(=O)N2CCCCC2)nc2ccccc2c1=O	-12	116	83	95
COc1ccccc1CN1CCC(CNS(=O)(=O)c2ccc3c(c2)CCCC(=O)N3)CC1	-28	106	87	105
Cc1ccc(Cl)cc1NC(=O)c1oc2ccc(S(=O)(=O)N3CCC4(CC3)OCCO4)cc2c1C	.	92	83	99
COC(=O)c1ccccc1NC(=O)c1nc(S(=O)(=O)Cc2cccc(C)c2)ncc1Cl	-12	93	81	102
O=C1CC(c2ccccc2)C2=C(CC(c3cccs3)CC2=O)N1 (stereo not drawn)	-2	91	86	105
Cc1ccc(/C=N/NC(=O)c2ccc(CN3CCOCC3)cc2)cc1	-23	90	91	102
CCOC(=O)CSC1=C(C#N)C(c2ccccc2Cl)C(C(=O)OC)C(=O)N1 (stereo not drawn)	-28	94	84	97
COc1ccc(Cl)cc1NC(=O)Cn1c(=O)n(CCC(=O)NCc2ccc3c(c2)OCO3)c(=O)c2ccccc21	-16	91	93	105
O=C1c2[nH]nc(-c3ccccc3O)c2C(c2cccc(Cl)c2)N1Cc1cccnc1 (stereo not drawn)	-33	103	84	103
O=C(CCCN1C(=O)c2cccnc2Oc2ccc(Cl)cc21)NCc1ccc2c(c1)OCO2	7	.	.	102
CCN1CCN(c2ncnc3c2cnn3-c2cc(Cl)ccc2C)CC1	.	122	100	103

New compounds follow
SMILES | HCMV NEC inh | Sa growth 42C | Sa growth 42C second temp | GIV Gai3 FP
COc1cc(/C=c2/sc3nc4ccccc4n3c2=O)ccc1OCc1ccccc1C | -14 | . | . | 109
Cc1ccc(C(C)C)c(OCc2nc3c4cnn(-c5ccccc5)c4ncn3n2)c1 | -15 | . | . | 100
O=C(CSCc1cnn(-c2ccccc2)c1-n1cccc1)NCc1cccc(Cl)c1 | 2 | 115 | 90 | 101
Cc1nn(C)c(C)c1NC(=O)CCCC(=O)c1ccccc1 | -13 | 98 | 93 | 101
CCOc1ccc(-c2noc(-c3cn(-c4ccccc4)c(=O)c4ccccc34)n2)cc1 | -1 | . | . | 96
O=C(c1cc(S(=O)(=O)N2CCCC(C(=O)N3CCOCC3)C2)c[nH]1)N1CCCC1 (stereo not drawn) | 9 | . | . | 108
Cc1cc(-c2ccc(C)c(S(=O)(=O)CCC(=O)Nc3ccc(S(N)(=O)=O)cc3)c2)on1 | -8 | . | . | 105
COC(=O)c1ccc(S(=O)(=O)N(Cc2ccccc2)C(C)C)o1 | -22 | 81 | 86 | 101
COc1ccc(C)cc1NC(=O)CN(C)S(=O)(=O)c1ccc2c(c1)c(=O)n(C)c(=O)n2C | -11 | 89 | 84 | 98
Cc1cc(N2CCCC2=O)cc(C)c1S(=O)(=O)NCCOc1ccccc1 | 2 | 108 | 101 | 110
CCCNC(=O)C1CCN(C(=O)N2CC(C)Oc3ccccc32)CC1 (stereo not drawn) | -12 | 89 | 100 | 106
CCCOc1cccc(C(=O)Nc2cccc3cccnc23)c1 | . | 93 | 78 | 97
CCOc1ccc(CCNC(=O)C2CC(C)=CCC2C(=O)O)cc1OCC (stereo not drawn) | -27 | 102 | 73 | 103
CSC1=C(C#N)C(C)CC(=O)N1 (stereo not drawn) | -7 | 92 | 88 | 100
N#Cc1nncn1CN1CCC(Cc2ccccc2)CC1 | -39 | 77 | 80 | .
CCOC(=O)CC(=O)CSc1nc(C)c2cc(C)c(C)cc2n1 | -30 | . | . | 98
Cn1c(=O)c(=O)n(C)c2cc(Oc3ccccc3)c(NS(=O)(=O)c3ccc4c(c3)CCCC4)cc21 | -28 | . | . | 98
CCOc1ccc(-c2cc(C(=O)Oc3ccc(C#N)cc3)no2)cc1 | -13 | 113 | 92 | 101
COc1ccc(-c2nn3c(COc4ccc(Br)cc4)nnc3s2)cc1OC | -21 | . | . | 105
Fc1ccc(Nc2nc(SCc3ccccc3Cl)nc3ccccc23)cc1 | . | 86 | 83 | 100
CSc1c(NC(=O)/C=C/C(=O)O)cccc1C(F)(F)F | 13 | 94 | 115 | 99
O=C(CCCn1c(=O)[nH]c2cc(Cl)ccc2c1=O)NC1CCCCCCC1 | . | 110 | 86 | 101
NCCN1C(=O)c2[nH]nc(-c3ccccc3)c2C1c1ccccc1 (stereo not drawn) | 9 | 77 | 88 | .
Cc1ccc(-n2nc(N3CCCN(C(=O)C4CC(=O)N(C5CCCCC5)C4)CC3)ccc2=O)cc1C (stereo not drawn) | -30 | . | . | 96
Cc1ccnc(NC(=O)CN2C(=O)CCc3cc(S(=O)(=O)N4CCCC4)ccc32)c1 | -22 | . | . | 108
O=C(CSc1ncc(C(F)(F)F)cc1Cl)N1CCC(c2nc3ccccc3o2)CC1 | -20 | 79 | 73 | .
CCC1CSC(Nc2ccc(C)c(Cl)c2)=N1 (stereo not drawn) | -23 | 78 | 88 | 102
COc1cc(/C=C2/C(=O)N(c3ccc(Br)cc3)N=C2C)cc([N+](=O)[O-])c1O | 7 | . | . | 108

Source: PubChem BioAssay
